NPYLR7 agonist – agonists of mosquito NPYLR7 receptor, primary screen, cell-based, Aedes aegypti, calcium fluorescence, mosquito biting behavior | HEK293T NPYLR7/Galpha15, GCaMP6s calcium fluorescence | activation, % at 10 µM | hit rate 0.15% among 270,000; in the data active means activation above about 40%;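 further: 0% = vehicle and 100% = reference agonist at the receptor; some compounds past the cut are filed as inactive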
NPYLR7 agonist max-min – second read-out of NPYLR7 agonist, no call of its own (marks repeat the call); activation, %; measured here: Max-Min RFU normalised activation; some inactives read as strong as hits;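 span of the calcium signal over five minutes; 0% = vehicle and 100% = native peptide agonist; compound fluorescence can raise it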
The depositor's hits bear a star; & = joins results of further samples. The list is partial; count on the stated rates, not on these rows.

Every second line gives: NPYLR7 agonist max-min	NPYLR7 agonist
> O=C(Nc1nc2ccc(Cl)cc2s1)c1ccc([N+](=O)[O-])s1
  -7	-3
> C#CCSc1nnc2c3ccccc3n(C)c2n1
  -3	0
> O=C1c2nccnc2C(=O)N1c1cc(F)ccc1F
  9	8
> CCc1nc2n(n1)C(=O)C(C(c1ccc(C)cc1)N1CCCC(C)C1)S2 (stereo not drawn)
  18	-3
> CC(Oc1ccccc1C(F)(F)F)C(=O)Nc1n[nH]c(-c2ccoc2)n1 (stereo not drawn)
  -2	-1
> CCOC(=O)N1CCN(c2nc(Nc3ccc(Cl)cc3C)c3nccnc3n2)CC1
  9	0
> Cc1ccc(-n2nc(C(C)(C)C)c3c2N(CC(=O)NCc2ccco2)C(=O)CSC3c2ccc(F)cc2F)c(C)c1 (stereo not drawn)
  26	29
> CCOn1c(=O)c(-c2ccc(OC)cc2OC)[n+]([O-])c2ccccc21
  10	16
> O=C1NCCN(Cc2ccc(F)c(F)c2)C1CC(=O)N1CC=CC1 (stereo not drawn)
  3	3
> O=C(NCc1ccncc1)c1cc(-c2ccc(F)cc2)nc2cc(-c3ccccc3)nn12
  7&25	-1&21
> C=CCOCC(O)CN(Cc1ccc(F)cc1)Cc1ccc(OC)c(OC)c1 (stereo not drawn)
  25	15
> Cc1sc2nc(-c3cccs3)nc(N3CCNC(C(N)=O)C3)c2c1C (stereo not drawn)
  4	8
> CC(/C=C1\SC(=S)N(C(C(=O)O)C(C)C)C1=O)=C\c1ccccc1 (stereo not drawn)
  -7	-3
> CCCC(=O)C1=C(c2ccccc2)N(C(=O)CCC)n2c(C)nnc2S1
  3	2
> COc1ccc(C2c3ccsc3CCN2CC(=O)N2CCN(C(=O)Nc3cccc(Cl)c3)C(C)C2)cc1 (stereo not drawn)
  14	20
> Cc1nn(C)cc1C(=O)OCC1CCCC1
  -2	5
> CC(=O)Nc1cc(C)c2c(=O)oc3ccccc3c2n1
  0	1
> O=S(=O)(Nc1ccc(F)cc1F)c1cccc(F)c1
  1	1
> CC(=O)Oc1ccc2c(=O)c(Oc3ccc(F)cc3)c(C(F)(F)F)oc2c1
  -12	-5
> COc1cccc(C=C2N=C(c3cccc(OC)c3)OC2=O)c1
  12	24
> Cc1ccc(NC(=O)CC(=O)N2CCC(=O)NCC2C)cc1 (stereo not drawn)
  2	2
> Cc1ccc(S(=O)(=O)N2CCC3(CC2)C(=O)N(CC(=O)N2CCOCC2)CN3c2ccccc2)cc1
  17	8
> CCOC(=O)c1ccc(NC(=O)N(CC(=O)Nc2c(-c3ccccc3)c(C)nn2-c2ccc(C)cc2)C(C)C)cc1
  12	9
> COc1ccc(C2=NN(c3nc(-c4ccccc4)c4cc(Br)ccc4n3)C(c3cccc([N+](=O)[O-])c3)C2)cc1 (stereo not drawn)
  19	9
> COc1cccc(Nc2cc(C)nc(-n3cc([N+](=O)[O-])cn3)n2)c1
  22	22
> Cc1cccc(N2C(=O)C=CC2=O)c1C
  -2	-1
> CC1CCCCC1N(C)C(=O)C1CC(=O)N(C2CC2)C1 (stereo not drawn)
  0	1
> Cc1ccc(-c2ccnc(N3CCOC4(CNCCOC4)C3)n2)c(C)n1 (stereo not drawn)
  -17	2
> Cc1sc2ccccc2c1S(=O)(=O)N1CCCC1C(N)=O (stereo not drawn)
  8	9
> Cc1nc(Nc2ccc(NC(=O)Nc3cccc(F)c3)cc2)cc(OC(C)C)n1
  -7	-7
> CC(NCc1nnc2n1CCCC2)c1nc(-c2cccs2)no1 (stereo not drawn)
  1	2
> CCc1sc(C(=O)O)cc1-c1cccc(C(C)N2CCCC2)c1 (stereo not drawn)
  -7	-1
> COc1ccc(OC)c(S(=O)(=O)N2CCN(c3nccs3)CC2)c1
  9	2
> O=c1ccc(-c2ccco2)nn1CCCNS(=O)(=O)c1ccc(OC(F)(F)F)cc1
  -6	-5
> O=C(NCCN1CCCCC1)C(F)(F)C1(F)OC(F)(F)C(F)(F)C1(F)F (stereo not drawn)
  3	4
> CC(=O)c1cc(F)cc(CN(CC(N)=O)Cc2ccccc2)c1O
  4	3
> CCCC(=O)Nc1ccc(Nc2ccc(-n3nc(C)c(C)c3C)nn2)cc1
  -7	-2
> Cn1ncc2c(NCCSc3cn[nH]n3)nc(C3CCCC3)nc21
  -13	-3
> CCOCCOc1nc(-c2cccc(F)c2)n(-c2ccc(NC(=O)c3cccc(C(F)(F)F)c3)cc2)n1
  -1	3
> Cc1ccc(C(=O)NC(C(=O)NC2CC2)C2CCN(C(=S)Nc3ccc(F)cc3)CC2)cc1 (stereo not drawn)
  10	6

2 of the compounds above, as labelled records.
Cc1ccc(S(=O)(=O)N2CCC3(CC2)C(=O)N(CC(=O)N2CCOCC2)CN3c2ccccc2)cc1
- NPYLR7 agonist max-min: 17
- NPYLR7 agonist: 8

CCOC(=O)c1ccc(NC(=O)N(CC(=O)Nc2c(-c3ccccc3)c(C)nn2-c2ccc(C)cc2)C(C)C)cc1
- NPYLR7 agonist max-min: 12
- NPYLR7 agonist: 9

At a glance, part of the list above:
Every second line gives: NPYLR7 agonist max-min	NPYLR7 agonist
> O=C(Nc1nc2ccc(Cl)cc2s1)c1ccc([N+](=O)[O-])s1
  -7	-3
> C#CCSc1nnc2c3ccccc3n(C)c2n1
  -3	0
> O=C1c2nccnc2C(=O)N1c1cc(F)ccc1F
  9	8

The list goes on:
Every second line gives: NPYLR7 agonist max-min	NPYLR7 agonist
> CC1CC1C(=O)Nc1cccc(C(=O)N(C)c2ccc(F)c(F)c2)c1 (stereo not drawn)
  0	2
> COc1cccc(-c2cc(C(=O)O)c3[nH]c(C)nc3n2)c1O
  -3	-1
> CS(=O)(=O)N1Cc2ccccc2CC1C(=O)Nc1ccnn1C1CCCC1 (stereo not drawn)
  5	14
> Nc1cc(Cl)ccc1Oc1ccc2ccccc2c1Cl
  7	1
> O=C(Nc1cc(Cl)ccc1OCC(F)(F)F)c1ccco1
  1	0
> O=C(Cc1ccccc1)N1CCOC(COCc2ccccc2)C1 (stereo not drawn)
  19	5
> N#Cc1sc2nc(-c3ccccc3)cc(-c3ccccc3)c2c1N
  15	20
> COc1ccc(OC)c(-c2cccc(-c3cccc(NC(=O)COc4ccccc4)c3)n2)c1
  -11	-6
> CC(=O)NCCn1ccnc1-c1ccc2nsnc2c1
  23	29
> COC(C)(C)CC(C)NCc1nc2cc(C)c(C)cc2[nH]1 (stereo not drawn)
  3	1
> COc1cccc([C@@H]2CCN(Cc3cccn3-c3cccnc3)C[C@H]2O)c1
  4	5
> O=C(Nc1nc2c(C(F)(F)F)cccc2s1)C1CC=CCC1 (stereo not drawn)
  -3	-3
> CN1CCC(N(C)C(=O)Cc2csc3nc(-c4ccccc4)cn23)CC1
  0	2
> O=C(Nc1ccc(F)cc1F)c1cnn2c(C(F)(F)F)cc(-c3ccc(Br)cc3)nc12
  3	9
> CC(=O)NCC(OC(=O)c1ccoc1)c1ccccc1 (stereo not drawn)
  8	10
> Oc1ccc(C2=CCN(C(=S)NC3CC4CCC3C4)CC2)cc1 (stereo not drawn)
  2	4
> CC(C)NS(=O)(=O)c1ccc(N2CCN(c3ccccc3)CC2)nc1
  5	10
> O=[N+]([O-])c1ccc(Cc2cc[n+](Cc3cc([N+](=O)[O-])cc4c3OCOC4)cc2)cc1
  -4	-4
> O=C(NCCSc1c[nH]c2ccccc12)c1ccc(S(=O)(=O)N2CCCC2)cc1
  14	0
> CC(C)Cn1cncc1CNC(=O)[C@H](N)c1ccccc1
  -9	-7

Full records, quoted from the list:
Shown for COC(C)(C)CC(C)NCc1nc2cc(C)c(C)cc2[nH]1 (stereo not drawn) : NPYLR7 agonist max-min: 3; NPYLR7 agonist: 1
Shown for CC(C)NS(=O)(=O)c1ccc(N2CCN(c3ccccc3)CC2)nc1 : NPYLR7 agonist max-min: 5; NPYLR7 agonist: 10
Shown for N#Cc1sc2nc(-c3ccccc3)cc(-c3ccccc3)c2c1N : NPYLR7 agonist max-min: 15; NPYLR7 agonist: 20

New compounds follow
Every second line gives: NPYLR7 agonist max-min	NPYLR7 agonist
> c1ccc(CSc2nccn3nc(-c4ccccc4)cc23)cc1
  -6	-2
> Cc1csc(C(C#N)C(=O)c2cn(CC(=O)C(C)(C)C)nn2)n1 (stereo not drawn)
  -6	-1
> Cc1nnnn1CCC(=O)N(C)Cc1nc2ccc(F)cc2[nH]1
  -4	0
> Cc1c(C(=O)NCC(C)C)c(CC(C)C)nn1Cc1ccccc1
  -4	-4
> O=C(Nc1ccc(Cl)c(Cl)c1)N(Cc1ccc(O)cc1)C1CC1
  5	11
> C=C(C)Cn1c(SCC(=O)N/N=C\c2ccc([N+](=O)[O-])cc2)nnc1-c1ccc(Br)cc1
  7	-3
> O=C(NCC1CCCN(C(=O)CCc2cn[nH]c2)C1)c1ccc(-c2ccccc2)cc1 (stereo not drawn)
  8	14
> Cc1cnc(NC(=O)c2ccc(N3CCCCC3)c([N+](=O)[O-])c2)s1
  5	0
> Cc1[nH]n(-c2nc(-c3ccc(Cl)cc3)cs2)c(=O)c1N=Nc1cccc(Cl)c1C
  -10	-5
> Cc1ccc(/C=C/C2=NC(=C\c3ccccc3)/C(=O)O2)cc1
  -8	-3
> CC(C)(C)c1ccccc1NC(=O)CCn1nc(-c2cccs2)oc1=O
  8	3
> O=C(NC1CCN(c2ccccc2C(=O)NCc2ccc3c(c2)OCO3)CC1)c1ccco1
  -16	-17
> Cc1ccc([N+](=O)[O-])cc1S(=O)(=O)Nc1ccc(F)c(F)c1F
  5	2
> CC(Sc1ccc(S(=O)(=O)N(C)C)cn1)C(=O)Nc1ccccc1OC(F)F (stereo not drawn)
  -1	5
> Cc1ccc(CSc2nc(=O)n(CCCO)c3c2CCCC3)cc1
  -13	-3
> O=C(C1CNCCN1C(=O)CCCn1cncn1)N1CCCC1 (stereo not drawn)
  2	1
> COc1ccc(CNC(=O)CC[C@]23CC[C@](C)(O)C[C@H]2C(C)(C)C[C@@H]3NC(=O)C2CC2)cc1
  -17	-12
> O=S1(=O)CCC(NCc2c(OC(F)F)ccc3ccccc23)C1 (stereo not drawn)
  -3&-4	0&-2
> O=C(COC(=O)c1cc2c(s1)CCC2)NC1CCS(=O)(=O)C1 (stereo not drawn)
  1	1
> C/C(=N/OC(=O)c1cnn2c(C(F)F)cc(-c3ccccc3)nc12)c1ccncc1
  2	-1

Copied from the list.
In NPYLR7 agonist, Cc1[nH]n(-c2nc(-c3ccc(Cl)cc3)cs2)c(=O)c1N=Nc1cccc(Cl)c1C reads -5
In NPYLR7 agonist, Cc1ccc(/C=C/C2=NC(=C\c3ccccc3)/C(=O)O2)cc1 reads -3

Carrying on:
Every second line gives: NPYLR7 agonist max-min	NPYLR7 agonist
> Cc1cc(NC(=O)c2ccc(S(=O)(=O)C(C)C)cc2)n(-c2nc3ccccc3s2)n1
  -11	-5
> COc1cccc(-c2cnc(C(F)(F)F)nc2C2CCN(C(=O)CCn3ccc(C)n3)CC2)c1
  1	15
> CN(Cc1cnn(-c2ccc(F)cc2)c1)C(=O)c1cn(C/C=C/c2ccccc2)nn1
  2	7
> O=c1c(C=NCCN2CCOCC2)c(C(F)(F)F)[nH]n1-c1nc2ccccc2s1
  -2	-1
> CCN(CC)c1onc(-c2ccc(F)cc2)c1CN(CCOC)C(=O)c1ccc2c(c1)OCO2
  13	10
> CCOc1ccc(NC(=O)C(C)NCC2(N3CCOCC3)CCCCC2)cc1 (stereo not drawn)
  3	3
> COc1ccccc1-c1cc(C(=O)NCCN2CCCC2)n2nc(-c3ccc(Cl)cc3)cc2n1
  -8&18	-9&19

Source: PubChem (Fisher Drug Discovery Resource Center)
